Calb FLC = C. albicans growth inhibition with fluconazole, primary screen, CaCi-2 strain, Alamar Blue fluorescence; actives 0.57% (n = 300,000); growth inhibition, % (test concentration not listed); C. albicans CaCi-2 (fluconazole-resistant clinical isolate) + fluconazole, 48 h;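 active means most replicates above 75%; inconclusive means exactly half above 75%; inactive means most below 75%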;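 further: all wells also contain fluconazole at 8 µg/ml as a sub-toxic cotreatment; 0% = median of DMSO wells and 100% = median of geldanamycin control wells; wells of about 8 µL received 7.5 nL stock; the first replicate is given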
T cruzi repl = inhibitors of intracellular T. cruzi growth, primary screen, luminescence, NIH3T3 host cells. actives 1.4% (n = 300,000). inhibition, % (test concentration not listed). T. cruzi beta-gal in NIH3T3, 90 h;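 active means mean inhibition across valid replicates above about 55%, limit read from the data; inconclusive means mean below that limit but half or more replicates reach it; inactive means mean below it, under half of replicates reach it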;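 further: signal also drops with host cell toxicity which is not excluded here; 0% = plate median of DMSO wells and 100% = zero luminescence signal; higher percent means less beta-gal luminescence so fewer parasites; stock transfer was 50 nL into about 50 µL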
AF4-AF9 inh = inhibitors of AF4 peptide binding to AF9, primary screen, biochemical, AlphaScreen, biotin-AF4 peptide, FLAG-AF9, single point; inhibition, % at 10 µM; actives 0.47% (n = 350,000);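 active means every replicate reaching a set inhibition limit, whatever the replicate mean, cut at about 25% in these data; inconclusive means mean inhibition reaches that limit but some replicates miss it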;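 further: 0% = plate neutral control median and 100% = total signal loss; the record names both 10 and 1 µM as test concentration; the first replicate is given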
Target sequence (P42568 whole entry, looked up): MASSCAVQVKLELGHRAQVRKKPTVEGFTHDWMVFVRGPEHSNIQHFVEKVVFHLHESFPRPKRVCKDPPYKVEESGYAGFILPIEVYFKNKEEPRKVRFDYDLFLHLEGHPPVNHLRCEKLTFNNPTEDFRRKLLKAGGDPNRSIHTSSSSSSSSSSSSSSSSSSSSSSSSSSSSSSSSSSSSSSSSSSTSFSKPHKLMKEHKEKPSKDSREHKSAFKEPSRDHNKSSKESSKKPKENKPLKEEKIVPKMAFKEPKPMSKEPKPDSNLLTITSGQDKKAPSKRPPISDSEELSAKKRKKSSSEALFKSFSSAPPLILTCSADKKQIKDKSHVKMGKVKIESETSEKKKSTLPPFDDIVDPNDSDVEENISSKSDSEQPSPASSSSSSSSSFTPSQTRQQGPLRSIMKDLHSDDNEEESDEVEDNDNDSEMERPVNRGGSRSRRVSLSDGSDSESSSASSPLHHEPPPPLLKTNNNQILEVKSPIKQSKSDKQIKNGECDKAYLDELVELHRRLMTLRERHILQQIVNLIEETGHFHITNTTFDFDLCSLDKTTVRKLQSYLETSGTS
rRNA inh HTS = reduced GFP signal of wild-type E. coli, primary screen, bacterial rRNA inhibitor project, GFP/RFP fluorescence, OD600, single point; E. coli WT GFP vs humanized-ribosome RFP mutants, 24 h; stronger effect = lower value; DMSO median 0, no signal -100; GFP signal change (wild-type ribosome), % (test concentration not listed); actives 1.6% (n = 350,000);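 active means significant combined selectivity score with lowered wild-type GFP, culture density cut under 30%, mutant RFP and density less affected; inactive means any of these conditions unmet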; further: one replicate is shown; some compounds called inactive have numbers as strong as hits
A1 inh = caspase 3/7 activation in MEF A1-2A-BIM cells, primary screen, A1 inhibitor project, cell-based, luminescence, HTS | caspase activation, % (concentration not given with the values) | actives 0.066% (n = 330,000) | AID 2462, 2010 | Caspase-Glo 3/7 luminescence, 3 h; percent of clofoctol response, vehicle zero;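 active means over half of replicate activation scores above 10%, or exactly half above 10 with the replicate mean above 10; inconclusive means replicate mean below 10 yet half the replicates above 10; inactive means over half of replicates below 10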;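 further: wells of about 30 µL received 50 nL stock; many hits fall short of the cut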
Vif TR-FRET = inhibitors of Vif binding to APOBEC3G peptide, primary screen, biochemical, TR-FRET, GST-Vif 1-94, biotin-A3G peptide, dose response retest (AID 1117319). TR-FRET GST-Vif / biotin-A3G peptide binding; higher % means a stronger effect; test concentration not given here; strong numbers were not always called active. actives 0.57% (n = 260,000). Virion infectivity factor (Human immunodeficiency virus type 1 group M subtype B (isolate …. one-dose inhibition, %; IC50 in µM for titrated hits;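 active means above the screen mean plus three standard deviations and confirmed in dose response; inconclusive means results disagree or hit not tested in dose response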;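 further: Vif residues 1-94 fused to GST binding biotinylated APOBEC3G peptide 110-148; 0% = full assay without inhibitor and 100% = GST in place of GST-Vif; retest series ran down from 100 µM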
RanGTP-Impb inh = inhibitors of RanGTP-importin-beta interaction, primary screen, biochemical, FRET, CFP-Ran, YFP-importin-beta, homogeneous. AID 2216, 2009. actives 1.1% (n = 300,000). inhibition, % (no concentration beside the values). cell-free CFP-Ran/YFP-importin-beta FRET ratio;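 active means most replicates above 15%; inconclusive means exactly half above 15%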;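 further: 0% = DMSO wells and 100% = Ran loaded with GDP instead of GTP; wells of about 40 µL received 100 nL stock; the first replicate is given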
Beta apoptosis = inhibitors of cytokine-induced beta cell apoptosis, primary screen, luminescence; INS-1E cytokine-induced death, ATP luminescence, 48 h; percent of positive-control rescue, neutral wells zero; protection from apoptosis, % (no concentration beside the values); actives 0.8% (n = 300,000); AID 435005, 2010;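 active means all replicates at 75% or more, or half of them and the mean; inconclusive means half reach 75% but not the mean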;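 further: 0% = cytokine-treated negative control wells and 100% = positive control rescue; higher means more ATP so stronger rescue from cytokine killing; wells of about 40 µL received 100 nL stock; the first replicate is given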
rRNA inh HTS OD600 = second read-out of rRNA inh HTS, no call of its own (marks repeat the call); OD600 change, %; measured here: OD600 growth;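 optical density of the mix in the first replicate; 0 = DMSO median and -100 = no signal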
rRNA inh HTS RFP = second read-out of rRNA inh HTS, no call of its own (marks repeat the call); RFP signal change, %; measured here: RFP humanized mutant strains;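 first replicate; 0 = DMSO median and -100 = no signal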
An asterisk follows results filed as active; ? = inconclusive; . = no result given. These rows are one share of the data (hit frequency here may not be typical).

The first seven compounds as a preview:
SMILES	Calb FLC	T cruzi repl	AF4-AF9 inh	rRNA inh HTS	rRNA inh HTS OD600	rRNA inh HTS RFP	A1 inh	Vif TR-FRET	RanGTP-Impb inh	Beta apoptosis
Cc1c(C(=O)N/N=C/c2ccncc2)no[n+]1[O-]	10	-5	0.5	2	5	7.7	-0.4	13%	.	-3
Cc1cc(C)n2cc(CSc3nnc(-c4ccccc4)o3)nc2n1	-2	-13	.	.	.	.	0.7	10%	-1.5	-4
COc1cccc(C(=O)Nc2ccc(S(=O)(=O)Nc3cc(C)nc(C)n3)cc2)c1	0	-10	1.7	2	-1	-3.2	-1.0	-5%	0.9	4
CN(C)c1ccc(/C=C/c2cccc[n+]2[O-])cc1	4	-9	4.5	-9	-20	-2.8	0.3	?	-284	-13
O=C(NCC(=O)N1CCC2(CC1)NCCc1[nH]cnc12)c1cccc(Cl)c1	-7	-6	1.1	17	13	0.2	1.6	.	-5.0	-6
Cc1cccc(S(=O)(=O)NCCc2ccccc2)c1	-28	-5	-3.4	5	4	3.4	-0.1	1%	.	-8
CCCCNC(=O)CSc1nc2ccccc2n1S(=O)(=O)c1ccc(Br)cc1	1	-16	.	.	.	.	0.4	-5%	2.0	-1

Results (from the top)
SMILES	Calb FLC	T cruzi repl	AF4-AF9 inh	rRNA inh HTS	rRNA inh HTS OD600	rRNA inh HTS RFP	A1 inh	Vif TR-FRET	RanGTP-Impb inh	Beta apoptosis
Cc1c(C(=O)N/N=C/c2ccncc2)no[n+]1[O-]	10	-5	0.5	2	5	7.7	-0.4	13%	.	-3
Cc1cc(C)n2cc(CSc3nnc(-c4ccccc4)o3)nc2n1	-2	-13	.	.	.	.	0.7	10%	-1.5	-4
COc1cccc(C(=O)Nc2ccc(S(=O)(=O)Nc3cc(C)nc(C)n3)cc2)c1	0	-10	1.7	2	-1	-3.2	-1.0	-5%	0.9	4
CN(C)c1ccc(/C=C/c2cccc[n+]2[O-])cc1	4	-9	4.5	-9	-20	-2.8	0.3	?	-284	-13
O=C(NCC(=O)N1CCC2(CC1)NCCc1[nH]cnc12)c1cccc(Cl)c1	-7	-6	1.1	17	13	0.2	1.6	.	-5.0	-6
Cc1cccc(S(=O)(=O)NCCc2ccccc2)c1	-28	-5	-3.4	5	4	3.4	-0.1	1%	.	-8
CCCCNC(=O)CSc1nc2ccccc2n1S(=O)(=O)c1ccc(Br)cc1	1	-16	.	.	.	.	0.4	-5%	2.0	-1
CC(=O)Nc1ccc(NC(=O)CSc2ccc3nnc(CCNC(=O)c4ccccc4)n3n2)cc1	1	-5	9.3	13	5	-1.2	0.3	-1%	4.9	-2
COCCNC(=O)C1CCC(CNS(=O)(=O)c2ccc3c(c2)CC(C)N3C(=O)C2CC2)CC1 (centres undefined)	10	8	-11	5	10	0.2	0.1	.	-2.4	-8
C=C(C)Cc1c(C)c(C#N)c2nc3ccccc3n2c1NCCCN(C)C	-3	?	-8.5	5	-4	5.3	-0.4	.	38*	-1
O=C(Nc1ccc(C(=O)N2CCOCC2)cc1)c1cc(-c2cccnc2)nc2ccc(Br)cc12	?	-6	12	15	0	5.0	0.0	-1%	1.9	5
Cc1ccc(NC(=O)CCNC(=O)c2ccc([N+](=O)[O-])cc2)cc1C	-4	11	0.9	2	14	-1.6	1.3	4%	-4.8	0
O=C(CSc1nccc(-c2cccs2)n1)Nc1cccc(Cl)c1	-24	0	-2.0	-3	0	-2.8	-0.2	.	1.2	3
CC(=O)c1cc(F)c(N2CCN(C(=O)Cc3ccccc3)CC2)cc1C	1	16	.	.	.	.	1.4	-1%	-0.5	1
COc1ccc(OC)c(/C=N/NC(=O)c2ccc(N(C)S(=O)(=O)c3ccccc3)cc2)c1	6	-7	2.5	1	0	2.0	-0.4	-7%	1.5	-2
CCCN=C1CC(C)(C)CC(=O)/C1=C(/O)CCC	-1	-2	-1.9	10	-1	1.3	0.8	.	1.5	-3
CN(C(=O)COC(=O)c1cc(-c2ccco2)nc2ccccc12)C1CCS(=O)(=O)C1 (centres undefined)	-1	4	-17	-6	0	-2.2	0.2	1.4µM*	-9.1	1
CC(C)(C)NC(=O)C(c1ccc(F)cc1)N(Cc1ccccc1Cl)C(=O)c1ccn[nH]1 (centres undefined)	1	-18	-1.7	-5	1	-2.9	0.5	-3%	6.6	1
CN(C)c1oc(-c2ccccc2)nc1C#N	-21	-8	.	.	.	.	1.0	-3%	-1.1	-4
CCc1ccc(NC(=O)C(=S)NC2CCCCC2)cc1	-1	16	-0.7	7	2	3.1	0.0	6%	1.6	.
Cc1cc(C(=O)CSc2nc(N)cc(N)n2)c(C)n1C1CC1	-12	-1	3.3	6	9	3.3	0.7	.	?	0
CC(Oc1cc2oc(=O)c3c(c2cc1Cl)CCC3)C(=O)NCCCN1CCOCC1 (centres undefined)	2	-4	1.6	11	11	7.7	0.7	.	2.4	-1
O=C(CSc1nnc(CNC(=O)c2ccccc2F)o1)NCCc1ccccc1	2	-16	.	.	.	.	2.6	-3%	-1.0	-1
COc1cc(OC)cc(C(=O)N[C@H](C(=O)Nc2ccc(F)cc2F)C(C)C)c1	0	2	0.1	6	1	-4.3	0.2	-5%	-3.6	-1
Cc1ccn2c(=O)cc(C)nc2c1	55	-15	-2.0	15	17	-1.5	1.0	5%	0.9	-18
O=C(COC(=O)c1ccc2ccccc2n1)NCc1ccccc1	-21	-8	-1.8	6	12	2.9	0.1	.	-8.1	-3
Cc1cc(/C=C(\C#N)C(=O)O)c(C)n1CCC(C)C	-7	8	4.1	7	-10	4.8	-0.3	-1%	1.7	4
CC(=O)Nc1cccc(NC(C)=C(C#N)C#N)c1	24	-12	.	.	.	.	-0.1	.	3.4	-2
O=S(=O)(c1ccccc1)N1C2CCC1CC(O)(c1cccnc1)C2 (centres undefined)	7	2	.	.	.	.	0.4	4%	6.3	1
O=C(NCC(=O)N(Cc1ccccc1)C(C(=O)NC1CCCC1)c1cccnc1)c1ccco1 (centres undefined)	-31	-1	.	.	.	.	0.3	0%	7.2	-9
O=C(NCCN1CCCC1)c1ccc(CS(=O)(=O)c2c(Cl)cccc2Cl)o1	-2	-12	1.2	2	2	-0.7	-0.8	1%	2.0	-5
N/C(=N\OC(=O)c1ccc(Br)cc1)c1ccncc1	?	-4	-1.6	9	17	1.3	-0.6	-4%	-2.6	-4
Cc1cccc(N=Nc2c(C)c(C#N)c(O)[nH]c2=O)c1	19	-11	1.0	24	14	3.4	0.7	8%	-2.2	.
Cc1ccc(CCNC(=O)C2CC(c3ccc(C(F)(F)F)cc3)=NO2)cc1 (centres undefined)	4	-12	1.6	.	.	.	-0.5	-5%	3.2	-7
O=c1[nH]cc(S(=O)(=O)N2CCOCC2)c(=O)[nH]1	-2	-6	-2.2	9	11	0.9	0.5	0%	?	-3
CCCn1nnnc1NCc1c(F)cccc1Cl	-12	-3	-3.5	-2	6	-0.3	1.2	-8%	-2.8	4

3 compounds from above, ordered by the number in Vif TR-FRET, low to high.
SMILES | AF4-AF9 inh | rRNA inh HTS | rRNA inh HTS OD600 | rRNA inh HTS RFP | A1 inh | Vif TR-FRET | RanGTP-Impb inh
N/C(=N\OC(=O)c1ccc(Br)cc1)c1ccncc1 | -1.6 | 9 | 17 | 1.3 | -0.6 | -4% | -2.6
O=c1[nH]cc(S(=O)(=O)N2CCOCC2)c(=O)[nH]1 | -2.2 | 9 | 11 | 0.9 | 0.5 | 0% | ?
Cc1cccc(N=Nc2c(C)c(C#N)c(O)[nH]c2=O)c1 | 1.0 | 24 | 14 | 3.4 | 0.7 | 8% | -2.2

New compounds follow.
SMILES	Calb FLC	T cruzi repl	AF4-AF9 inh	rRNA inh HTS	rRNA inh HTS OD600	rRNA inh HTS RFP	A1 inh	Vif TR-FRET	RanGTP-Impb inh	Beta apoptosis
COCc1nnc(NC(=O)C(C)C)s1	-4	3	.	.	.	.	-1.0	13%	5.4	4
COCc1cc(=O)n2c([nH]c3ccccc32)c1C#N	0	-44	.	.	.	.	-4.9	8%	0.4	3
CCOC(=O)c1ccccc1OCc1cc(/C=N/NC(=O)c2cccnc2)ccc1OC	1	1	0.4	-16	-20	-2.7	-0.1	1%	-0.8	-5
CN(CC(=O)Nc1ccc(F)cc1)C(=O)COC(=O)c1ccc(=O)n(Cc2ccccc2)n1	.	.	0.1	6	3	4.5	0.1	.	.	-4
CCc1ccc(CNC(=O)CCc2cn(C)c3ccccc23)cc1	6	-3	1.1	-10	-3	-2.2	0.7	-25%	?	0
O=C(N/N=C1\C2CN3CCN(C2)CC1(c1ccccc1)C3)Nc1ccccc1	-1	1	3.6	3	3	1.2	0.3	-3%	2.3	.
Cc1cc2n(n1)C(c1sccc1C)Nc1ccccc1-2 (centres undefined)	19	11	.	.	.	.	0.5	5%	.	-3
O=C1C2C3C=CC(O3)C2C(=O)N1CC(O)c1ccccc1 (centres undefined)	-9	-26	.	.	.	.	-1.2	?	0.7	-3
CCCCc1n[nH]c2c1/C(=N/O)CC(C)(C)C2	.	-9	.	.	.	.	-0.1	.	-1.7	-8
CCC(C)NC(=O)[C@H]1N2C(=O)c3ccccc3C2SC1(C)C (some centres undefined)	-4	0	-7.6	12	11	0.4	2.0	-1%	0.2	-4
COC(=O)c1ccc(Cc2ccccc2)o1	1	-3	.	.	.	.	1.4	-4%	8.7	-3
CN1/C(=C\C(=O)COc2ccc3c(c2)OCO3)C(C)(C)c2ccccc21	-5	56*	.	.	.	.	-2.2	3%	-2.5	61
COc1ccc(OC)c(Nc2nc(-c3cccc([N+](=O)[O-])c3)nc3ccccc23)c1	23	28	.	.	.	.	0.4	4%	1.6	-9
O=C(COc1cccnc1[N+](=O)[O-])Nc1ccc(Cl)cc1F	.	.	5.4	-3	2	2.4	-1.3	-6%	.	-2
CC(=O)NC(Cc1c[nH]c2ccccc12)C(=O)N/N=C/c1ccccc1 (centres undefined)	30	-4	4.0	4	-10	0.3	0.6	-8%	0.8	-2
COC(=O)c1cc(C(=O)N(Cc2ccccc2)c2ccccn2)cc([N+](=O)[O-])c1	-16	26	7.6	8	4	-1.3	0.8	-3%	-0.7	0
CCOc1ccc(CCNC(=O)c2cc3ccccn3n2)cc1OCC	0	3	-0.6	-7	-9	-3.2	.	-2%	4.9	-2
COCCn1c(SCC(=O)Nc2cc(C)on2)nnc1-c1ccccc1	10	-11	34*	2	2	1.2	-0.8	.	1.0	-5
COc1cccc(/C=N/NC(=O)CN2C(=O)NC3NC(=O)NC32)c1 (centres undefined)	-5	-20	.	.	.	.	0.7	.	-0.9	-6
O=C(Nc1ccccc1Cl)Oc1ccc(Cl)cc1Cl	-2	-14	0.9	11	19	0.1	-0.4	.	3.1	2
